miR-21 reporter: raises the signal of a miR-21 reporter; HeLa miR-21 FLuc reporter, luciferase, 48 h; Potency, µM (doses to about 38.3 µM), for inactives: top-dose reporter change, positive = more light; 340,000 tested, under 10 active; active = well fitted rising curve with a large enough effect; inconclusive = small, poorly fitted or top-dose-only effect; inactive = no such curve, though single readings can be large or run the other way;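 note: % of control where 0% means no effect; miR-21 action dims this reporter so a rising signal means less miR-21 action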
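Using DMEM plus 10% FBS, HeLa miR-21-FLuc cells are incubated with test compounds (final up to about 40uM) for 48 hours; firefly luciferase signal is then imaged following reagent-mediated lysis.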
Starred values were filed as active, the others as inactive; ? = inconclusive; [ ] = dose if it differs, or a comment. The list is partial (hit frequency here may not be typical).

SMILES	miR-21 reporter
COc1cc(NC(=O)C2CCN(c3nnc(C)c4c(C)n(-c5ccccc5)nc34)CC2)cc(OC)c1	3%
CCOC(=O)c1cnc2ccc(OC)cc2c1Nc1ccc(OCc2ccccc2Cl)cc1	?
Cc1cccn2c(=O)c(C(=O)NCc3ccccc3Cl)c(O)nc12	-2%
O=C(Nc1cccc(Cl)c1)N1CC2CCCN2c2ccccc21 (stereo unspecified)	6%
COCCCNC(=O)CS(=O)Cc1nc(-c2cccc(C)c2)oc1C (stereo unspecified)	0%
Cc1ccc(NC(=O)c2cnc3cc(C)ccn3c2=O)c(C)c1	-54%
O=C(NCc1cccs1)c1ccc(Cn2c(SCc3cccc(F)c3)nc3cccnc32)cc1	3%
Cn1cc(-c2cc3n(n2)CCC(=O)N3CCCC(=O)Nc2ccc(Cl)cc2)c2ccccc21	-22%
Cc1ccc(C)c(Nc2ncnc3c2cnn3-c2ccc(F)cc2)c1	-44%
O=C(Nc1ccc(Br)cc1)Nc1nc2c(s1)CCCCCC2	-35%
COc1cc(-c2noc(-c3ccc(N(C)C)c([N+](=O)[O-])c3)n2)cc(OC)c1OC	?
Cc1ccccc1NC(=O)c1ccc(Cl)c(S(=O)(=O)N2CCCCCC2)c1	4%
COc1ccc(Cl)cc1NC(=O)Cn1c(=O)oc2cc(S(=O)(=O)N3CCCCCC3)ccc21	-5%
COc1ccc(N2Cc3cccc(C(=O)Nc4ccc(F)cc4)c3C2=O)cc1	20%
Cc1cn(C)c(CC(=O)NCc2ccccc2)c1C(=O)O	3%
COc1cccc(NC(=O)C2CCC(CNS(=O)(=O)c3ccc4c(c3)CCCC(=O)N4)CC2)c1 (stereo unspecified)	1%
CC(=O)c1ccc(NC(=O)C2CCCN(S(=O)(=O)c3ccc4c(c3)CCCN4C(C)=O)C2)cc1 (stereo unspecified)	10%
CCCN1CCN(c2ncnc3sc(C(=O)Nc4c(C)cc(C)cc4C)c(C)c23)CC1	-1%
COc1cccc(CN2CCc3nc(Nc4ccc5c(c4)OCCO5)ncc3C2)c1OC	9%
Cc1cc(C)c2c(CC(=O)N(Cc3ccccc3)C3CCS(=O)(=O)C3)coc2c1 (stereo unspecified)	-1%
Cc1cc(C)cc(N(CC(=O)Nc2c(C)cc(C)cc2C)S(=O)(=O)c2c(C)nn(C)c2C)c1	8%
CCN(CC)C(=O)c1sc2c(c1C)c(=O)n(-c1ccccc1)c(=O)n2Cc1c(C)cc(C)cc1C	-9%
COc1ccc(CCNC(=O)C(=O)Nc2ccc(C)cc2)cc1OC	0%
O=C(NCc1ccco1)C1CCN(C(=O)N2CCOc3ccccc32)CC1	-2%
COc1cccc(C(=O)NCC(=O)OCc2cc(=O)n3c(C)csc3n2)c1	-4%
Next part:
SMILES	miR-21 reporter
Cc1ccc(C)c(CN2C(=O)c3ccccc3S(=O)(=O)c3ccc(C(=O)N4CCOCC4)cc32)c1	-1%
CCOc1ccc(-c2c(C)nn3c(C)c(C(=O)Nc4cc(C)cc(C)c4)cnc23)cc1OCC	-7%
Cc1ccc(CNC(=O)CCc2c(C)nc3nc(CNC(=O)OC(C)(C)C)nn3c2C)cc1	2%
CN(C)c1ccc(CNC(=O)CN2C(=O)CSc3ccc(S(=O)(=O)N4CCCC4)cc32)cc1	7%
COc1ccc(Cn2c(CNS(=O)(=O)c3ccc(C)c(C)c3)nc3cccnc32)cc1	-9%
COc1ccc(C)cc1NC(=O)C1CCN(S(=O)(=O)c2ccc3[nH]c(=O)oc3c2)CC1	-3%
Cc1ccc(C)c(Nc2nn3c(=O)c4ccc(C(=O)NCCc5ccccc5)cc4nc3s2)c1	2%
CCOc1ccc(C(=O)Nc2ccc3c(c2)N(C(C)=O)CCC3)cc1OCC	-5%
Cc1ccc(NC(=O)CSc2nc(=O)n(Cc3ccncc3)c3c2CCC3)cc1Cl	3%
COc1ccc(NC(=O)CSc2nncn3c2cc2oc(C)cc23)cc1OC	2%
CC(=O)c1ccc(NC(=O)Cn2c(-n3nc(C)cc3C)nc(C)c(C)c2=O)cc1	-3%
COc1cccc2cc(C(=O)N3CCN(c4cc(C)ccc4C)CC3)c(=O)oc12	-12%
Cc1cc(C)cc(NC(=O)Cn2nnc(-c3nc(-c4ccncc4)no3)c2N)c1	-14%
O=C(C1CC1)N1CCc2cc(Br)cc(S(=O)(=O)Nc3ccc(F)c(F)c3)c21	?
O=C(Nc1ccccc1)N1CCN(C(=O)c2nsc3ccccc23)CC1	-9%
COc1cccc(-c2nn3c(=O)cc(CN4CCN(S(=O)(=O)c5ccc(C)cc5)CC4)nc3s2)c1	8%
CCC12CN3CC(CC)(CN(C1)C3c1c[nH]c3ccccc13)C2=O (stereo unspecified)	3%
Cc1ccc(OCC(=O)Nc2ccc3nc(Nc4cccc(Cl)c4)cc(C)c3c2)cc1	4%
CC(C)CCNC(=O)c1ccc2c(c1)nc1n2CCCCC1	-3%
COc1ccc(Cl)cc1NC(=O)c1c(NCc2ccc(C)o2)sc2c1CCCCC2	4%
CCOC(=O)C1CCN(c2ncnc3c2c(-c2ccccc2)cn3-c2ccc(Cl)cc2)CC1	4%
CCc1c(C)nc2nncn2c1NCc1ccc(Cl)cc1	?
Cn1c2ccccc2c2c(C(=O)N3CCN(c4cccc(Cl)c4)CC3)cn(C3CCCCC3)c(=O)c21	17%
CC(=O)N1CCCc2ccc(NC(=O)c3ccc(C(F)(F)F)cc3)cc21	4%
Cc1cc(C(=O)N2CCN(c3cccc(Cl)c3)CC2)c2c(C)nn(-c3ccccc3Cl)c2n1	27%

Of the compounds above, 4 contain a thiophene ring, fused or not.
SMILES	miR-21 reporter
O=C(NCc1cccs1)c1ccc(Cn2c(SCc3cccc(F)c3)nc3cccnc32)cc1	3%
CCCN1CCN(c2ncnc3sc(C(=O)Nc4c(C)cc(C)cc4C)c(C)c23)CC1	-1%
CCN(CC)C(=O)c1sc2c(c1C)c(=O)n(-c1ccccc1)c(=O)n2Cc1c(C)cc(C)cc1C	-9%
COc1ccc(Cl)cc1NC(=O)c1c(NCc2ccc(C)o2)sc2c1CCCCC2	4%

Additional entries:
SMILES	miR-21 reporter
Cc1cc(S(=O)(=O)Nc2ccc(C(=O)O)cc2)c(C)c(S(=O)(=O)c2ccc(Cl)cc2)c1	-1%
CCC(C(=O)Nc1cc(C)ccc1C)n1c(=O)c(C(F)(F)F)nc2ccccc21 (stereo unspecified)	0%
Cc1ccc(CNC(=O)CCn2cnc3ccccc3c2=O)cc1	7%
CC(=O)c1ccc(N2C(=O)N(Cc3ccccc3C#N)c3ccccc3S2(=O)=O)cc1	-13%
CCc1nn(CC(=O)NC(C)CC)c(=O)c2cc3occc3n12 (stereo unspecified)	-8%
Cc1ccc(Cn2c(CCNC(=O)c3cccc(C)c3)nc3ccccc32)cc1	17%
CN1C(=O)c2[nH]nc(-c3ccc(F)cc3)c2C1c1cccc(O)c1 (stereo unspecified)	7%
CCOc1ccc(CNC(=O)c2cccc(Nc3nc4ccccc4n4nnnc34)c2)cc1OC	3%
CSc1ncc(C(=O)Nc2c(C)cccc2C)c(-c2ccccc2)n1	3%
Cc1cccc(NC(=O)c2oc3ccccc3c2NC(=O)c2cc(=O)c3ccc(C)cc3o2)c1	-3%
COc1ccc(Cl)cc1NC(=O)c1c(NCc2ccc(C)o2)sc2c1CCCC2	-1%
O=C(OCc1ccccc1Cl)c1ccc(-c2nnn(Cc3ccc(F)cc3)n2)cc1	-5%
Cc1ccc(NC(=O)CSc2nnc3[nH]c(=O)cc(C)n23)cc1Cl	0%
CCCCN1CCc2nc(N3CCN(c4ncccn4)CC3)ncc2C1	20%
Cc1cc(Nc2cccc(O)c2)c2cccc(Br)c2n1	14%
Cc1cc(=O)n(Cc2cccc(Cl)c2)c2c1c(C)nn2-c1ccccc1	1%
C=C(C)Cn1c(SCC(=O)c2ccccc2)nc2sc3c(c2c1=O)CCCC3	-10%
COc1ccccc1N1CCN(C(c2ccccc2)c2nnc(-c3ccccc3Cl)o2)CC1 (stereo unspecified)	?
COc1ccc(CCNC(=O)c2c(O)nc3cc(C)ccn3c2=O)cc1OC	0%
COc1ccc([C@]23Cc4cc(OC)c(OC)cc4C(O2)c2c(c4ccccc4oc2=O)O3)cc1	-19%[7.66 µM]
O=C(COc1ccc(Cl)cc1)Nc1ccc(O)c(-c2nc3ccccc3s2)c1	-2%
O=C(N/N=C(\c1ccccc1)c1cccnc1)c1cc(O)ccc1O	4%
CCOc1ccc(-c2cc(CCCC(=O)NCCc3ccc(Cl)cc3)no2)cc1	26%
Cc1cc(C)c(NC(=O)CN2C(=O)CCn3nc(-c4cccn4C)cc32)c(C)c1	10%
O=C(CC1Sc2ccc(C(F)(F)F)cc2NC1=O)Nc1ccc(Cl)c(C(F)(F)F)c1 (stereo unspecified)	24%
(next part)
SMILES	miR-21 reporter
CC(=O)c1ccc(N2CCN(c3ccc(NC(=O)c4ccc(F)cc4)cc3C(=O)O)CC2)cc1	7%
Cc1cccc(C)c1NC(=O)CS(=O)(=O)c1nc(-c2ccc(Cl)cc2)cn1-c1ccccc1	-32%
COc1cccc(CNC(=O)Cn2c(=O)oc3cc(S(=O)(=O)N4CCC(C)CC4)ccc32)c1	21%
O=C(Nc1ccc(Cl)c(C(F)(F)F)c1)C1CCN(S(=O)(=O)c2cccc3nonc23)CC1	-1%
CCc1nc2nc(C)c(NS(=O)(=O)c3ccc(C(C)(C)C)cc3)c(=O)n2[nH]1	1%
CCOC(=O)c1ccccc1NC(=O)N1CCN2CCCCC2C1 (stereo unspecified)	-2%
Cc1ccc(CNc2c(C)c(C)nc3nncn23)cc1	22%
CCCCn1nc(NC(=O)c2cccc(Cl)c2)c2cc3ccc(C)cc3nc21	4%
CCCN1C(=O)c2oc3cc(C)cc(C)c3c(=O)c2C1c1ccc(F)cc1 (stereo unspecified)	-4%
Cc1nc2ccc(S(=O)(=O)NC(CC(C)C)C(=O)N3CCN(c4ccc(F)cc4)CC3)cc2s1 (stereo unspecified)	20%
CCOC(=O)C(C)NC(=O)c1cc2c(=O)[nH]c3ccc(C)cc3c2s1 (stereo unspecified)	-4%
COC(=O)c1cc2sc(Cl)cc2n1Cc1nc(-c2ccc(OC)cc2)oc1C	-2%
CCOc1ccc(CCNC(=O)CCCc2nnc3n(CC(C)C)c(=O)c4sccc4n23)cc1	9%
COC(=O)c1sc2cccc(F)c2c1S(=O)(=O)N1CCN(c2ccc(C)cc2C)CC1	-1%
COc1ccc2nc(N(Cc3cccnc3)C(=O)c3ccc4c(c3)OCCO4)sc2c1	-19%
COc1cccc(C(c2sc3nc(-c4ccco4)nn3c2O)N2CCCC2)c1 (stereo unspecified)	-20%
Cc1cccc(CCNC(=O)c2cc3c(s2)-c2c(C)cccc2OC3)c1	6%
Cc1cc(C)cc(OCC(=O)NCC2(N3CCOCC3)CCCCC2)c1	?
O=C(Cn1ncc2c(=O)oc3ccccc3c21)NCc1ccccc1Cl	-3%
COc1ccc(C(CC(=O)Nc2ccc(C)c(C)c2)N2Cc3ccccc3C2=O)cc1OC (stereo unspecified)	2%
COC(=O)c1c(NC(=O)Cc2coc3cc(C)ccc23)sc2c1CCCC2	1%
CCc1ccccc1NC(=O)CN(Cc1ccccc1)S(=O)(=O)c1ccc(Br)cc1	-2%
Nc1c(C(=O)NCc2cccs2)nnn1CC(=O)Nc1cccc(F)c1	-10%
Cc1cc(N2CCC(C)CC2)nc2ccc(NC(=O)CCC(=O)N3CCN(c4ccccc4F)CC3)cc12	17%
Cc1ccc(NC(=O)Cn2c(=O)ccc3cc(S(=O)(=O)N4CCCC4)ccc32)cc1N(C)C	22%

The last two compounds of the section before are carried over, then new ones follow:
SMILES	miR-21 reporter
Cc1cc(N2CCC(C)CC2)nc2ccc(NC(=O)CCC(=O)N3CCN(c4ccccc4F)CC3)cc12	17%
Cc1ccc(NC(=O)Cn2c(=O)ccc3cc(S(=O)(=O)N4CCCC4)ccc32)cc1N(C)C	22%
CCC(=O)N1CCc2cc(S(=O)(=O)CCC(=O)N3CCN(c4cccc(C)c4C)CC3)ccc21	-3%
O=C(c1ccc(Cl)cc1)N1CCCCC1CCN1CCOCC1 (stereo unspecified)	2%
COc1ccc(-n2nnnc2C2CCN(S(=O)(=O)c3cccc(Cl)c3C)CC2)cc1	18%
CCc1ccc(C(=O)c2cn(CC(=O)Nc3cc(F)ccc3F)c3nc(C)ccc3c2=O)cc1	3%
CC1=C(c2ccc(C)c(C)c2)S(=O)(=O)N(Cc2ccc(C(=O)Nc3cc(F)ccc3F)cc2)C1=O	-1%
Cc1nn(CCCC(=O)NCc2ccc(F)cc2)c(=O)c2c1sc1ccccc12	-22%
CCc1ccc(S(=O)(=O)c2cn(Cc3ccccc3)c3cc(N4CCCC4)c(F)cc3c2=O)cc1	0%
CCOc1ccccc1CNC(=O)CCCn1c(=O)c2cccn2c2cccnc21	-29%
COc1cc(CNCCSc2nnnn2C)ccc1OCc1ccccc1C	-41%
COc1ccc(CNC(=O)c2cc3c(=O)n(C)c4ccccc4c3n2C)c(OC)c1	-8%
Cc1ccc(C2CCN(C(=O)Nc3ccc(C)c(C)c3)C2)cc1 (stereo unspecified)	-46%
CCN(CC)C(=O)c1sc2c(c1C)c(=O)n(CCc1ccccc1)c(=O)n2Cc1ccc(C)cc1	?
COc1cc(/C=C(\C#N)c2nc3ccccc3[nH]2)ccc1OCc1ccccc1F	-18%

Some of these compounds in order of their number in miR-21 reporter, largest number first.
SMILES	miR-21 reporter
CCc1ccc(C(=O)c2cn(CC(=O)Nc3cc(F)ccc3F)c3nc(C)ccc3c2=O)cc1	3%
O=C(c1ccc(Cl)cc1)N1CCCCC1CCN1CCOCC1 (stereo unspecified)	2%
Cc1nn(CCCC(=O)NCc2ccc(F)cc2)c(=O)c2c1sc1ccccc12	-22%
CCOc1ccccc1CNC(=O)CCCn1c(=O)c2cccn2c2cccnc21	-29%
COc1cc(CNCCSc2nnnn2C)ccc1OCc1ccccc1C	-41%

Screens as filed in PubChem.
